Source: PubChem
VDR inhibitor: Inhibitors of the vitamin D receptor (VDR): qHTS | Potency, µM, for the others: max response, negative = inhibition, most hits filed as inhibitors | Vitamin D3 receptor (Homo sapiens), P11473 | VDR-SRC2-3 peptide fluorescence polarization, 2 h | AID 504847, 2011 | 0.93% of 400,000 active; active means well fitted inhibition curve with a large enough effect; inconclusive means small, poorly fitted or top-dose-only effect, or another doubt; inactive means no such curve, though single readings can be large or run the other way; further: series mostly up to about 120 µM
Target sequence (P11473 whole entry, looked up): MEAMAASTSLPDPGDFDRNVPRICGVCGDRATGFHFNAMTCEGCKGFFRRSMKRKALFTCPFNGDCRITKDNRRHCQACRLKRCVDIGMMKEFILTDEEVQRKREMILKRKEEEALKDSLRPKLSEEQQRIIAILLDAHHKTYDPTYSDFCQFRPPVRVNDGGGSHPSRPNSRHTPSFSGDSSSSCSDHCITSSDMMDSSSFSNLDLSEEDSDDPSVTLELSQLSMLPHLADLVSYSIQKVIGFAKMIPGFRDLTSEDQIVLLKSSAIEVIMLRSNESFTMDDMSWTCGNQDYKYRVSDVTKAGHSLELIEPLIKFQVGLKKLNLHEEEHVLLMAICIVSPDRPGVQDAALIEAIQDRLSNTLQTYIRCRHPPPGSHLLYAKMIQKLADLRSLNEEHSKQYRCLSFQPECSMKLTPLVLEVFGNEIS
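Inhibition of the VDR/SRC2-3 peptide interaction is quantified by fluorescence polarization. Compounds (23 nl, pintool) incubate with the reagents for 2 hours at ambient room temperature.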
Starred values were filed as active, the others as inactive; ? = inconclusive; [ ] = dose if it differs, or a comment. On the % scale 0 is the no-effect control and ±100 the full control effect; potency means the concentration at half of the fitted maximal effect. The list is partial; rates above refer to the full screens.

SMILES | VDR inhibitor
CCOC(=O)CSc1nc2cccnc2n1-c1ccc(F)cc1 | -4%
C=CCOc1cccc(C2C(C(=O)c3ccc(C)o3)=C(O)C(=O)N2c2nccs2)c1 (configuration not stated) | -13%
CCOC(=O)C1=C(COC(=O)Cc2ccc(Br)cc2)NC(=O)NC1C (configuration not stated) | -5%
O=C(C(Sc1ccccc1)c1ccc(Br)cc1)N1CCOCC1 (configuration not stated) | -10%
Cc1ccc(NC(=S)NC2CCCCC2)cc1S(=O)(=O)N(C)C | -1%
Cc1cccc(NS(=O)(=O)c2ccc(C)c(C(=O)NCC(c3cccs3)N3CCOCC3)c2)c1 (configuration not stated) | 4%
O=C1OC2(CCCCC2)OC(=O)C1=CNc1ccc2c(c1)OCO2 | 1%
CCn1c(C)cc(=S)c2ccccc21 | -2%
CCOc1ccc(-c2nnc(SCC(=O)Nc3cc(F)ccc3F)o2)cc1 | 12%
CC[C@H](C)[C@@H]1NC(=O)c2cc([N+](=O)[O-])cc(I)c2SC[C@@H](C(N)=O)NC(=O)[C@H](CCCCN)NC1=O | 4%
O=C(Nc1ccc(OCc2cc(=O)n3ccccc3n2)cc1)c1ccccc1Cl | 8%
CC(C)CCN1C(=O)c2ccc(C(=O)Nc3ccc(O)cc3C(=O)O)cc2C1=O | -16%
CCC(C)N(C(=O)c1csnn1)C(C(=O)NC1CCCC1)c1ccc(F)cc1 (configuration not stated) | -18%
O=C(Nc1cccc(C(F)(F)F)c1)c1cccnc1N1CCN(CCO)CC1 | 16%
COc1ccccc1CNC(=O)COC(=O)Cc1ccc(Cl)cc1 | -3%

A draw from above in order of SMILES length, falling.
SMILES | VDR inhibitor
CC[C@H](C)[C@@H]1NC(=O)c2cc([N+](=O)[O-])cc(I)c2SC[C@@H](C(N)=O)NC(=O)[C@H](CCCCN)NC1=O | 4%
Cc1cccc(NS(=O)(=O)c2ccc(C)c(C(=O)NCC(c3cccs3)N3CCOCC3)c2)c1 (configuration not stated) | 4%
C=CCOc1cccc(C2C(C(=O)c3ccc(C)o3)=C(O)C(=O)N2c2nccs2)c1 (configuration not stated) | -13%
CC(C)CCN1C(=O)c2ccc(C(=O)Nc3ccc(O)cc3C(=O)O)cc2C1=O | -16%
CCC(C)N(C(=O)c1csnn1)C(C(=O)NC1CCCC1)c1ccc(F)cc1 (configuration not stated) | -18%
O=C(Nc1ccc(OCc2cc(=O)n3ccccc3n2)cc1)c1ccccc1Cl | 8%
O=C(Nc1cccc(C(F)(F)F)c1)c1cccnc1N1CCN(CCO)CC1 | 16%
CCOC(=O)C1=C(COC(=O)Cc2ccc(Br)cc2)NC(=O)NC1C (configuration not stated) | -5%
CCOc1ccc(-c2nnc(SCC(=O)Nc3cc(F)ccc3F)o2)cc1 | 12%
O=C1OC2(CCCCC2)OC(=O)C1=CNc1ccc2c(c1)OCO2 | 1%
Cc1ccc(NC(=S)NC2CCCCC2)cc1S(=O)(=O)N(C)C | -1%
COc1ccccc1CNC(=O)COC(=O)Cc1ccc(Cl)cc1 | -3%
CCOC(=O)CSc1nc2cccnc2n1-c1ccc(F)cc1 | -4%
CCn1c(C)cc(=S)c2ccccc21 | -2%

2 compounds drawn at random from those above, as already listed:
SMILES | VDR inhibitor
Cc1cccc(NS(=O)(=O)c2ccc(C)c(C(=O)NCC(c3cccs3)N3CCOCC3)c2)c1 (configuration not stated) | 4%
O=C1OC2(CCCCC2)OC(=O)C1=CNc1ccc2c(c1)OCO2 | 1%

(listing goes on)
SMILES | VDR inhibitor
Cc1ccc(S(=O)(=O)N2CCCC2C(=O)NCCc2nc3ccccc3[nH]2)cc1 (configuration not stated) | 3%
O=C(c1ccc(S(=O)(=O)N2CCOCC2)cc1)N1CCN(S(=O)(=O)c2ccc(Cl)s2)CC1 | 1%
COc1cc2c(cc1OC)CN(C(=O)CCNS(=O)(=O)c1ccccc1F)CC2 | 6%
Cc1ccc2oc(-c3cccc(NC(=S)NC(=O)c4cccs4)c3)nc2c1 | -12%
COc1ccc(NC(=O)c2nnn(Cc3ccccc3C)c2N)c(OC)c1 | -23%
Cc1ccc(C(=O)N2N=C(c3ccc(NS(C)(=O)=O)cc3)CC2c2cccs2)cc1 (configuration not stated) | -21%
CCCCOC(=O)Cn1c(=N)n(CCN(CC)CC)c2ccccc21 | -13%
COc1ccccc1/C=C/C(=O)NCC(=O)N/N=C(/C)c1ccc(Cl)cc1 | 4%
C=C[C@H]1CCC=C2C(=O)CCC[C@@H]21 | -3%
COc1ccc(NC(=O)C2CCCN(C(=O)c3cnn(-c4ccccc4)c3-n3cccc3)C2)cc1 (configuration not stated) | -12%
COc1ccc(-n2ncc3c(NCc4ccco4)ncnc32)cc1 | 14%
N#CCSc1nc2ccc(N3CCCCC3)cc2c(=O)n1Cc1ccccc1 | -1%
COc1cccc(/C=N/NC(=O)CNC(=O)COc2ccccc2)c1O | -3%
O=C(CSCc1c(Cl)cccc1Cl)NN=C1CCCC1 | -7%
CC(=O)c1ccc(OCCCC(=O)Nc2cc(Cl)ccc2-n2cncn2)cc1 | -11%
COc1ccc(OCCSc2nc(C)nc3ccccc23)cc1 | 0%
COc1ccc(-n2nc(C(=O)NCC(=O)N3CCOCC3)c3ccccc3c2=O)cc1OC | 30%
Cc1cc(NC(=O)c2c(F)cccc2F)n(-c2nc3ccccc3[nH]2)n1 | 2%
Cc1ccc(NC(=O)c2nc(S(C)(=O)=O)ncc2N(Cc2cccc(F)c2)Cc2ccco2)cc1C | 3%
CNc1cc(-c2ccccc2CN(C)C)ncn1 | -4%
Cc1ccnc(NS(=O)(=O)c2ccc3ccccc3c2)n1 | -5%
N#C/C(=N/O)c1nc(-c2ccc(F)cc2)cs1 | -11%
COC(=O)c1cccc(N(C(=O)c2cnccn2)C(C(=O)NC2CCCCC2)c2cn(C)nc2C)c1 (configuration not stated) | 3%
CCc1nnc(NC(=O)CCC(=O)N2CCN(Cc3ccc(Cl)cc3)CC2)s1 | -1%
O=[N+]([O-])c1cccc(-n2nnnc2CNCc2ccccc2)c1 | -17%
CCCN(CC(=O)Nc1ccccc1C)C(=O)C1CC(=O)N(c2ccccc2OCC)C1 (configuration not stated) | -15%
COc1c(C)cc(C(=O)C2CCCN(C(=O)c3cccc(F)c3)C2)cc1C (configuration not stated) | 9%
CCc1ccc(NCc2nc3ccccc3c(=O)[nH]2)cc1 | 3%
N#Cc1nc(-c2ccccc2F)oc1NCc1ccccc1 | 32%[activator]
COc1ccc(S(=O)(=O)NCC2CCCN(Cc3cccnc3)C2)cc1 (configuration not stated) | ?
CCCCOc1ccc(S(=O)(=O)N2CCN(c3ccc(N4CCN(CC)CC4)nn3)CC2)cc1 | -3%
Cc1cccc(-n2ncc3c2CCCC3NC(=O)CCN2Cc3ccccc3C2=O)c1C (configuration not stated) | 0%
COc1ccc(C2C(C(C)=O)=C(O)C(=O)N2CCCn2ccnc2)cc1 (configuration not stated) | 4%
O=C(Cc1cccs1)Nc1nc(-c2ccc(F)cc2F)cs1 | 8%
COc1ccc(C2(CCN=Cc3ccc(N(C)C)cc3)CCOC(C)(C)C2)cc1 (configuration not stated) | 9%
CC1CCc2[nH]c3ccc(C(=O)NCC4CCCO4)cc3c2C1 (configuration not stated) | 1%
CC1CCCC(NC(=O)COC(=O)Cc2cn3ccsc3n2)C1C (configuration not stated) | -4%
Cc1ccc(NC(=O)CSc2nnc(-c3ccco3)n2N)cc1F | -7%
COc1ccc(C(=O)Nc2nc(C)c(C(C)=O)s2)cc1S(=O)(=O)N1CCOCC1 | 8%
O=C(c1nn(Cc2ccccc2)c(=O)c2ccccc12)N1CCN(c2ccccn2)CC1 | 1%
NC(=O)c1cccn1Cc1cccc(Cl)c1 | 12%
CCc1ccc(N(C(=O)c2ccoc2C)C(C(=O)NC2CCCC2)c2ccc(OC)cc2)cc1 (configuration not stated) | 5%
CC(C)Cc1nnc(NC(=O)CCC(=O)N2CCN(S(=O)(=O)c3ccccc3)CC2)s1 | -11%
COc1ccc(CCNC(=O)COC(=O)/C=C/c2cc(OC)ccc2OC)cc1 | -7%
O=C(CCc1nnc(COc2ccccc2)o1)NCc1ccc(Cl)s1 | 3%
FC(F)(F)c1ccc(N2CCN(c3ncnc4c3nnn4Cc3ccccc3Cl)CC2)cc1 | 0%
O=[N+]([O-])c1cccnc1S(=O)(=O)c1ccccc1 | ?
CCOc1ccc(NC(=O)C2CCCN(S(=O)(=O)c3c(C)noc3/C=C/N(C)C)C2)cc1 (configuration not stated) | -3%
Cc1ccccc1Oc1nc(-c2ccccn2)nc2ccccc12 | -11%
CCN(C(=O)COC(=O)c1cc(Cl)ccc1OC)c1c(N)n(Cc2ccccc2)c(=O)[nH]c1=O | -9%
Cc1cc(NC(=O)c2noc3c2CCCCC3)no1 | 8%
CCOC(=O)C(NS(=O)(=O)c1ccc(Br)cc1)C(C)C (configuration not stated) | -1%
COc1ccc(CCNC(=O)C2CC(c3cc(C(F)(F)F)cc(C(F)(F)F)c3)=NO2)cc1 (configuration not stated) | -13%
CC(NC(=O)COC(=O)c1nc(Cl)ccc1Cl)c1ccccc1 (configuration not stated) | -22%
COc1ccc2ccccc2c1/C=N/NC(=O)c1cccc(C)c1 | 14%
Cc1cc(Br)ccc1OCC(=O)NNC(=O)CCc1ccccc1 | 11%
Cc1ccc(NC(=O)CN(C)S(=O)(=O)c2ccc3c(c2)n(C)c(=O)c(=O)n3C)cc1F | -20%
CN1CCN(CCCNC(=O)Nc2ccc([N+](=O)[O-])cc2)CC1 | -10%
CCC(=O)c1ccc(OCC(O)Cn2nc(C)cc2C)cc1 (configuration not stated) | 9%
COc1ccc(Cl)cc1-c1nc(-c2ccncc2)no1 | 16%
Following part.
SMILES | VDR inhibitor
CCOC(=O)c1ccccc1NC(=O)CSc1nccn1Cc1ccco1 | 16%
COc1ccc(C2Nc3ccccc3C(=O)N2Cc2ccccc2)cc1COc1ccccn1 (configuration not stated) | -2%
Cc1nc2nc(C)c(CCC(=O)NCCC3=CCCCC3)c(C)n2n1 | -11%
Cc1cc(=O)n(-c2ccc(O)cc2)[nH]1 | -16%
COCCn1nnnc1C(c1cc2cc(OC)c(OC)cc2[nH]c1=O)N1CCN(c2ccc(O)cc2)CC1 (configuration not stated) | 2%
Cc1ccc(SC2=C(N(C)C)C(=O)c3ccccc3C2=O)cc1 | ?
O=C(c1ccc(Cn2cc(Cl)c([N+](=O)[O-])n2)cc1)N1CCN(Cc2ccccc2)CC1 | -9%
Cc1oc2c(c(C)cc3oc(=O)c(CC(=O)NCc4ccc(F)cc4)c(C)c32)c1C | 6%
O=C1NC(=S)SC1=C1CCCC1 | -10%
Cc1cc(C)cc(OC2CCCCC2NS(=O)(=O)c2ccccc2)c1 (configuration not stated) | 11%
O=C(c1cccc(F)c1)N1CCN(S(=O)(=O)c2ccc(C(F)(F)F)cc2)CC1 | -15%
COc1ccccc1NC(=S)N1CCNC(=O)C1CC(=O)Nc1cccc(C)c1 (configuration not stated) | -6%
Cc1ccc(-c2cc(-c3ccccc3)nc(Cl)n2)cc1 | 7%
CC(=O)C1=C(O)C(=O)N(c2ccc(Br)cc2)C1c1ccc(Br)cc1 (configuration not stated) | ?
CN(Cc1cn(C)c2ccccc12)C(=S)Nc1cc(F)cc(F)c1 | 7%
CC(=O)Nc1nc2ccc(C(=O)NC3CCCCC3)cc2s1 | -9%
COc1ccc(CCNC(=O)c2ccc(-n3c(C)cc4c3CCC(C)C4)cc2)cc1OC (configuration not stated) | 15%
CC(=O)NCCC(=O)NCC1(N(C)Cc2ccccc2)Cc2ccccc2C1 | -23%
CCOC(=O)N1CCN(C(=O)CCc2nc3sc4c(c3c(=O)[nH]2)CCCC4)CC1 | 8%
CC1(C)CC(NS(=O)(=O)OCC(Cl)(Cl)Cl)c2cc(C#N)ccc2O1 (configuration not stated) | ?
Cc1cc(C(=O)NC2CCCCCC2)c2ccccc2n1 | 12%
O=C(CN1C(=O)C2C3c4ccccc4C(c4ccccc43)C2C1=O)N1CCOCC1 (configuration not stated) | 24%
CC1CN(C(=O)c2ccccc2NS(=O)(=O)c2ccc(Cl)cc2)CC(C)O1 (configuration not stated) | -4%
Cc1ccccc1N=CC=C1OC(C)(C)C(C)(C)O1 | -2%
CSc1nc2sc3c(c2c(=O)n1CC(C)C)CC(C)(C)OC3 | 0%
CCCc1nnc(NC(=O)C2CCN(C(=O)C3CC(=O)N(c4ccc(C)cc4)C3)CC2)s1 (configuration not stated) | 6%
CC(C)OC(=O)CSc1nnc2n1C(C)(C)Cc1ccccc1-2 | 6%
COc1ccc(NC(=S)NCc2cccnc2)cc1OC | 2%
COc1ccccc1N(Cc1ccccc1)S(=O)(=O)c1cccc(C(=O)O)c1 | -11%
CC(C)(CCl)C(=O)Nc1ccc(Sc2ccc(F)cc2)cc1 | -3%
COc1cccc(CN=CC2=C(O)CC(C)(C)CC2=O)c1OC | 15%
Cc1[nH]n2c(=O)cc(Cc3ccccc3)nc2c1C#N | 8%
COc1cc(C)c(COc2ncnc3ccccc23)cc1OC | -10%
Cc1ccc(C(=O)OCC(=O)NC(C)c2ccccc2)cc1C (configuration not stated) | 6%
O=C(O)COc1ccccc1/C=N/NC(=O)CSc1nc2ccccc2c(=O)n1-c1ccc(Cl)cc1 | -1%
CCOC(=O)c1nn(-c2ccc(C)cc2)c(=O)cc1OCC(=O)Nc1ccc(OC)cc1 | -10%
CCn1c(Cc2ccccc2)nnc1SCC(=O)Nc1ccc(N2CCOCC2)c(Cl)c1 | 5%
O=C(Nc1cccc(C(F)(F)F)c1)c1cnc2n(c1=O)CCS2 | -16%
Cc1cc(C(=O)NNC(=S)NC2CCCCC2)cs1 | 5%
COc1cc(C2C(C(=O)c3cccs3)=C(O)C(=O)N2CCN2CCOCC2)cc(OC)c1OC (configuration not stated) | -9%
CCCOc1ccc(N2C(=O)CC(N(CCc3ccc(OC)cc3)C(=O)c3cccc(F)c3)C2=O)cc1 (configuration not stated) | 4%
Cc1ccc(NS(=O)(=O)c2cc3c4c(c2)CC(=O)N4CCC3)cc1C | 13%
